# From PubChem
# miR-21 FLuc – raises the signal of a miR-21 reporter. HeLa miR-21 FLuc reporter, luciferase, 48 h. Potency, µM (series often up to 38.3 µM), without a hit: at the top dose reporter change, positive = more light. 340,000 tested, under 10 active; active = well fitted rising curve with a large enough effect; inconclusive = small, poorly fitted or top-dose-only effect; inactive = no such curve, though single readings can be large or run the other way;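 note: % of control where 0% means no effect; miR-21 action dims this reporter so a rising signal means less miR-21 action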
#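 Luminescence from a firefly luciferase reporter carrying a miR-21 binding site downstream, stably expressed under a CMV promoter in HeLa cells that make miR-21 endogenously, reports miRNA modulation after 48 h compound exposure up to approximately 40uM final.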
# Rango dissoc inh – inhibitors of RanGTP-induced Rango-importin beta complex dissociation | O95149+P62826 | Biochemical FRET Rango-importin beta, RanGTP-induced dissociation | Potency, µM (doses to about 46.1 µM), without a hit: at the top dose activity change, negative = inhibition | 340,000 compounds, 0.071% hits | AID 540253; active means falling FRET ratio curve, often poorly fitted, with flat reads before Ran was added; inconclusive means other falling curves, or compound fluorescence or quenching; inactive means flat or rising ratio curve;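 note: potency is the fitted concentration of half-maximal effect; % of control where 0% means no effect; nearly all actives have a fitted effect of over 45% in size; -100% = wells without RanGTP and RCC1; the record marks most hits as doubtful in a second field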
#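 Quantitative HTS using a FRET biosensor: 0.1 uM Rango, 0.25 uM importin beta, 0.6 uM Ran, 2 mM GTP, 0.2 uM RCC1 final, PBS with DTT, Tween-20 and BSA. Post-read taken 45 min after Ran addition.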
# GLA inh pH 4.5 – alpha-galactosidase A (human) inhibition, pH 4.5; AID 1467; activity change, negative = inhibition, % at 105 µM; 230,000 tested, under 10 active; purified enzyme, 4-MU-alpha-Gal fluorescence, pH 4.5; inconclusive = small, poorly fitted or top-dose-only inhibition, or a rising curve; inactive = flat fitted curve, though single readings scatter; no compound was filed as active;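 note: 0% = full activity with enzyme and -100% = basal without enzyme; dose as in the result columns while the protocol names 77 µM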
# Target sequence (P06280 whole entry, looked up): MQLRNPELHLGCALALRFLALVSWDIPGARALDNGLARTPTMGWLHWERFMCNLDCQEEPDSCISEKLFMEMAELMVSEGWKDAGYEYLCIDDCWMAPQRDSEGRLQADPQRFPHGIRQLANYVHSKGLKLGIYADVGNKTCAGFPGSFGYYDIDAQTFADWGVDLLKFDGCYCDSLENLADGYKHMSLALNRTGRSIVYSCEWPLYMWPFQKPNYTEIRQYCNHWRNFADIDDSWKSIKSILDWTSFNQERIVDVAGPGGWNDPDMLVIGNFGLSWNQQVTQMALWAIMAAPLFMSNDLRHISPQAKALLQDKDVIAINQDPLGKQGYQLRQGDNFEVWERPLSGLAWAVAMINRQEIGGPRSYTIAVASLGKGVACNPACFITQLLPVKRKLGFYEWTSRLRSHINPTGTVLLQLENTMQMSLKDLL
# Rango-impB inh – inhibitors of Rango-importin beta complex formation | Q14974 | Rango CFP/YFP FRET sensor + importin beta, 45 min | Potency, µM (highest dose often 92.2 µM), inactives show at the top dose inhibition of complex formation | 340,000 compounds, 0.031% hits | AID 540263; active = rising FRET ratio curve, often small or poorly fitted; inconclusive = mostly compound fluorescence or quenching in the first reads; inactive = flat curves in all reads;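 note: potency is the fitted concentration of half-maximal effect; 0% = DMSO wells and 100% = buffer wells lacking importin beta; nearly all actives have a fitted effect of over 15% in size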
#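 FRET biosensor Rango (snurportin 1 IBB between N-terminal EYFP and C-terminal Cerulean), 50 nM in PBS/1 mM DTT/0.02% Tween-20/0.1% BSA, preincubated 5 min RT with compound; 0.125 microM importin beta added, 45 min RT, CFP/YFP FRET ratio read.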
# * marks the source's active call; other numbers are inactive results; ? = inconclusive; . = no result given; & = joins results of further samples; [ ] = dose if it differs, or a comment. Not all compounds are listed; rates above refer to the full screens.
# Start of the listing, in advance, 2 compounds:
SMILES,miR-21 FLuc,Rango dissoc inh,GLA inh pH 4.5,Rango-impB inh
Cc1cc(C(=O)Nc2cccc3c2O[C@@H](CN(C)S(=O)(=O)c2ccccc2)[C@H](C)CN([C@@H](C)CO)C3=O)n(C)n1,.,-8%,.,-3.6%
Cc1ccc(S(=O)(=O)N2C[C@@H]3CCCC[C@@H]3[C@@H](C)[C@H]2c2cn(Cc3ccccc3)c3ccccc23)cc1,.,1%,.,1.1%

# Results, repeating the preview:
SMILES,miR-21 FLuc,Rango dissoc inh,GLA inh pH 4.5,Rango-impB inh
Cc1cc(C(=O)Nc2cccc3c2O[C@@H](CN(C)S(=O)(=O)c2ccccc2)[C@H](C)CN([C@@H](C)CO)C3=O)n(C)n1,.,-8%,.,-3.6%
Cc1ccc(S(=O)(=O)N2C[C@@H]3CCCC[C@@H]3[C@@H](C)[C@H]2c2cn(Cc3ccccc3)c3ccccc23)cc1,.,1%,.,1.1%
Cc1cc(C(C)(C)C)oc1C(=O)N(CC(=O)NC1CCCC1)c1cccc(C(F)(F)F)c1,24%,-5%,-24,3.1%
COc1ccc(OC)c(C(=O)COC(=O)c2cccnc2Cl)c1,3%,3%,5,3.0%
Cc1cc2cc(CCNC(=O)CCc3ccccc3)c(=O)[nH]c2cc1C,-4%,0%,.,1.4%
CCCCN=C(N)/C(C(=O)OCC)=C(\O)c1ccc(OC)cc1,-14%,-12%,0,1.0%
O=C(Cn1cc(COc2cccc([N+](=O)[O-])c2)nn1)c1ccc(O)cc1,.,0%,.,-2.5%
Cc1cccc(/C=N\NC(=O)c2sccc2-n2cccc2)c1,-35%,6%,-4,1.8%
CCOc1c(C=C(C#N)C#N)c2ccccc2n1CC,0%,2%,-1,4.9%
CSc1ccc(CCNS(=O)(=O)c2csc(C(N)=O)c2)cc1,6%,-1%,.,-0.9%
Cc1ccc(N2CCN(S(=O)(=O)c3c(C)noc3C)CC2C)cc1 (stereo unspecified),7%,1%,.,-3.5%
Cc1cccc(C)c1NC(=O)CSc1nc(-c2ccco2)cc(C(F)(F)F)n1,-7%,10%,8,-2.0%
COC(=O)C1=C(C)Nc2sc(C(N)=O)c(N)c2C1c1ccncc1 (stereo unspecified),1%,1%,5,?
O=C(/C=C/c1ccccc1)N(Cc1cccs1)C1CCS(=O)(=O)C1 (stereo unspecified),-1%,-10%,-5,-0.7%
CCCCN(C)CCn1c(=S)[nH]c2cc(OCC)c(OCC)cc2c1=O,-19%,-1%,-12,-0.4%
CCC(=O)NC(Cc1ccccc1)c1nc2ccccc2[nH]1 (stereo unspecified),-6%,-2%,.,?
CCc1cc([N+](=O)[O-])cc(CC)c1N,-3%,4%,-11,-4.4%
COc1ccc(NC(=O)N(C)C[C@H]2Oc3c(NS(=O)(=O)c4ccc(OC)cc4)cccc3C(=O)N([C@H](C)CO)C[C@@H]2C)cc1,.,4%,.,-2.4%
COc1cccc(C(=O)Nc2ccc3c(c2)C(=O)N(CC2CCCO2)C3=O)c1 (stereo unspecified),-13%,-19%,.,5.1%
COc1ccc(C(=O)Nc2ccccc2)cc1S(=O)(=O)NCc1ccco1,0%,-6%,.,-1.8%
O=C(Nc1ccc(Cl)cc1)C(c1ccccc1)N1CCOCC1 (stereo unspecified),3%,-4%,3,-4.5%
COC(=O)C1=C(C)OC(N)=C(C#N)C1c1cccnc1 (stereo unspecified),-5%,8%,-1,-0.5%
Cc1cc(=O)oc2c1c(C)nn2-c1ccc(Cl)cc1,-2%,-14%,10,-2.2%
Cc1nn(-c2ccccc2)c(C)c1C(=O)OCc1ccc(C#N)cc1,-21%,-20%,.,?
Cc1noc(C)c1NC(=O)N(C)C[C@H]1Oc2ccc(NC(=O)NC(C)C)cc2C(=O)N([C@H](C)CO)C[C@@H]1C,.,12%,.,-2.3%
Cc1ccc(CONC(=O)c2ccc(OC(F)F)cc2)cc1,-34%,-21%,4,-3.2%
Cc1cc(C)n2ncc(C(=O)NC3CCCCC3)c2n1,-4%,9%,-5,-2.5%
C=CCOC(=O)Nc1c(C(=O)OC)[nH]c2ccccc12,-1%,1%,6,4.4%
CC(=O)Nc1cccc(NC(=O)CCNC(=O)c2ccccc2)c1,-4%,3%,.,0.2%
CCOC(=O)C1(CCCc2ccccc2)CCN(C(=O)CCc2cnn(C)c2)CC1,2%,-2%,-14,0.1%
O=C(Nc1ccc(F)cc1F)c1ccc(COc2c(F)c(F)cc(F)c2F)o1,-11%,-2%,0,-2.0%
COc1ccc(C(NC(=O)c2c(F)c(F)c(F)c(F)c2F)c2ccccc2)cc1 (stereo unspecified),?,-4%,-20,5.7%
O=C(NCc1cccnc1)c1ccc(CN2CCc3ccccc3C2)cc1,1%,6%,-8,-0.6%
COc1ccc(C(=O)OCC(=O)Nc2ccc([N+](=O)[O-])cc2OC)c(O)c1,0%,2%,3,3.4%
COc1cc(/C=N/n2c(C3CCCCC3)n[nH]c2=S)cc(Br)c1O,5%,-9%,.,-12%
COC(=O)c1c(C)nc2c(c(SC)nn2-c2ccccc2)c1N,1%,14%,0,-1.2%
COc1ccc(C(=O)Nc2ccc(S(=O)(=O)N3CCCCC3C)cc2)c(OC)c1OC (stereo unspecified),17%,-18%,-10,0.1%
O=c1[nH]cnc2c1ncn2-c1ccc(N(CCO)CCO)cc1,.,-5%,.,-0.3%
CC1=C(C#N)C(c2cccnc2)C2=C(N1)c1ccccc1C2=O (stereo unspecified),-2%,-2%,5,0.3%
CCN(CC(=O)Nc1ccc2c(c1)OCCO2)Cc1cc(=O)oc2cc(C)c(C)cc12,-14%,5%,-3,4.5%
COc1cc(NC(=O)COC(=O)/C=C/c2ccccc2Cl)cc(OC)c1,-1%,-11%,-16,0.9%
O=C(NCc1ccc(F)cc1)C(c1ccc(Cl)cc1)N(C(=O)c1csnn1)C1CC1 (stereo unspecified),8%,0%,.,0.3%
CC(C)NC(=O)CC(=O)NN=C1CCCCC1,1%,14%,7,-1.8%
COc1ccc(OC2C(=O)N(c3cc(C)ccc3C)C2c2ccc(OC)c(OC)c2)cc1 (stereo unspecified),-6%,-18%,-5,2.1%
COC(=O)C1CCC(=O)N1C(c1ccc(OC)cc1)c1cc(OC)c(OC)c(OC)c1 (stereo unspecified),.,0%,.,-0.3%
Cc1ccccc1N(C(=O)c1ccccn1)C(C(=O)NCc1ccccc1)c1cccnc1 (stereo unspecified),-2%,18%,.,-0.5%
NCCCC[C@@H]1NC(=O)[C@H](CCC(=O)O)NC(=O)c2cc([N+](=O)[O-])cc(I)c2NCC[C@@H](C(N)=O)NC1=O,5%,25%,2,2.5%
O=C(NCCN1CCOCC1)c1ccc(CS(=O)(=O)c2ccc(Br)cc2)o1,.,-14%,.,2.1%
CC1(C)Cc2cccc(OCC(=O)OCC(=O)NCc3ccccc3)c2O1,0%,-5%,.,2.2%
Cc1ccc2cccc(S(=O)(=O)n3nc(C)cc3C)c2n1,-10%,10%,1,6.3%
CCc1ccc(Nc2ncnc3nc[nH]c23)cc1,-17%,-12%,-3,0.0%
COc1cc(C(C)=O)ccc1Oc1ncnc2c1cnn2-c1cccc(Cl)c1,-21%,-5%,6,-0.2%
CCCc1ncc(C[n+]2ccccc2C)c(N)n1,.,1%,3&3,1.0%
Cn1c(=O)[nH]c(=O)c2c1nc(SCC(O)CCl)n2Cc1ccccc1 (stereo unspecified),-16%,-11%,.,-1.1%
Cc1ccc(S(=O)(=O)N2CCOCC2)cc1NC(=O)CNCc1ccccc1Cl,.,-15%,.,0.9%
Cc1c(NC(=O)Nc2cccs2)cccc1[N+](=O)[O-],0%,0%,-22[21.1 µM],-2.5%
COc1ccc(OC)c(NC(=O)Cn2c(C)nc3ccccc3c2=O)c1,-29%,5%,-5,-1.1%
O=C(NC(=O)c1c(F)cccc1F)O/N=C1\CCCc2occc21,3%,-1%,0,-2.9%
CCCCCCC1C(C#N)=C(N)OC2=C1C(=O)CCC2 (stereo unspecified),1%,-6%,11,0.2%
CC#CCN(CC#CC)S(=O)(=O)c1ccc(-n2cnnn2)c(OC)c1,-6%,-8%,2,1.2%

# Other compounds follow:
SMILES,miR-21 FLuc,Rango dissoc inh,GLA inh pH 4.5,Rango-impB inh
Fc1cccc(NC(=S)NCCc2ccccc2)c1,-22%,3%,-6,?
CCc1c(C)nc(N)n2c(SCC(=O)N3CCN(c4ccccc4F)CC3)nnc12,-2%,.,3,.
Cc1nc2ccc(S(=O)(=O)NCC(=O)N3CCCCC3)cc2s1,-12%,6%,-5,-1.4%
O=C(Nc1cccc(Cl)c1)Nc1cc(S(=O)(=O)N2CCCCC2)ccc1Cl,?,?,-5,0.3%
CCOC(=O)C1=C(C)NC(C)=C(C(=O)OCC)C1C(=O)OCC(=O)N1CCc2ccccc21,-19%,1%,1,-2.5%
CN(c1ccc(OCC(=O)OCC(=O)Nc2cccc([N+](=O)[O-])c2)cc1)S(=O)(=O)c1ccc(F)cc1,-1%,-11%,-8,?
C#CCOCCOCCOCCNc1nc(N2CCN(C(=O)C([C@@H](C)CC)n3cc(C(N)Cc4ccc(O)cc4)nn3)CC2)nc(N2CCN(C(=O)[C@H](CCC(=O)O)n3cc(C(N)[C@H](C)CC)nn3)CC2)n1 (stereo partly specified),-1%,-1%,0,2.2%
Cc1cc(C(=O)COC(=O)c2cccn2C)c(C)n1Cc1ccco1,-8%,1%,-20,-0.5%
C/C=C/C=C(/NC(=O)c1ccccc1)C(=O)Nc1ccccc1,0%,27%,.,-7.2%
Cc1cc(O)c2c(c1)CC1C3CCC4CC(=O)CCC4(C)C3CC(=O)C21C (stereo unspecified),.,-16%,.,-1.4%
Cn1c(CCN2CCOCC2)nc2cc(NC(=O)COc3ccc(Cl)cc3)ccc21,0%,-3%,11,-0.4%
CCCc1cc(=O)[nH]c(/N=C(/NC(=O)C(C)N2C(=O)c3ccccc3C2=O)Nc2ccccc2)n1 (stereo unspecified),-3%,-11%,-1,0.4%
COc1ccc(NC(=O)C(=O)N2N=C3CCCCC3C2(O)C(F)(F)F)cc1 (stereo unspecified),-5%,1%,6,3.0%
CC[C@H](C)[C@H](NC(N)=O)C(=O)Nc1ccc(NC(C)=O)cc1,-4%,2%,0,-2.5%
c1ccc(SCCOCCN2CCOCC2)cc1,-27%,0%,.,-1.7%
COc1ccc(/C=C2\N=C(C(C)(C)C)OC2=O)c(OC)c1,0%,?,.,?
CCCCN1CCc2c([nH]c3ccc(C)cc23)C1=O,-66%,1%,-3,0.2%
COC(=O)C1Cc2c([nH]c3ccccc23)C2(CCN(Cc3ccccc3)CC2)N1 (stereo unspecified),1%,14%,.,2.2%
Cc1ccc2nc(C3CCCN3Cc3nc(CCC(C)C)no3)[nH]c2c1 (stereo unspecified),0%,-17%,-4,-0.5%
C[C@H]1CCC(=O)N(CCSc2ccc(Br)cc2)CC1,.,-16%,.,-0.9%
O=C(CN1CCc2ccccc21)NN1CC(=O)N(c2ccccc2)CC1=O,0%,-12%,8,0.5%
O=C(C1COc2ccccc2O1)N1CCCCC1 (stereo unspecified),.,33%,.,5.7%
CCC(CC)C(=O)Nc1nnc(SCC(=O)NC(C)(C)C)s1,-8%,4%,-3,1.0%
Cc1cc(=O)oc(C)c1C(=O)OCC(=O)c1ccc(Br)cc1,-16%,-10%,-3,-1.7%
O=S(=O)(c1ccccc1)N1CCN(c2ccccc2)CC1,-1%,23%,.,2.1%
O=C(COC(=O)[C@H](Cc1ccccc1)NC(=O)c1ccco1)NC(c1ccccc1)c1ccccc1,-2%,-4%,0,-2.1%

# Compound profiles, from the list above. Values in the order: miR-21 FLuc | Rango dissoc inh | GLA inh pH 4.5 | Rango-impB inh
# Shown for `Cc1ccc2nc(C3CCCN3Cc3nc(CCC(C)C)no3)[nH]c2c1` (stereo unspecified) → 0% | -17% | -4 | -0.5%
# Shown for `O=S(=O)(c1ccccc1)N1CCN(c2ccccc2)CC1` → -1% | 23% | . | 2.1%
# Shown for `COC(=O)C1Cc2c([nH]c3ccccc23)C2(CCN(Cc3ccccc3)CC2)N1` (stereo unspecified) → 1% | 14% | . | 2.2%
# Shown for `O=C(CN1CCc2ccccc21)NN1CC(=O)N(c2ccccc2)CC1=O` → 0% | -12% | 8 | 0.5%
